# VDR inhibitor = vitamin D3 receptor (human) inhibition; 0.93% of 400,000 active; VDR-SRC2-3 peptide fluorescence polarization, 2 h; AID 504847; Potency, µM, for the others: max response, negative = inhibition, most hits filed as inhibitors; P11473; active means well fitted inhibition curve with a large enough effect; inconclusive means small, poorly fitted or top-dose-only effect, or another doubt; inactive means no such curve, though single readings can be large or run the other way; further: series mostly up to about 120 µM
# Target sequence (P11473 whole entry, looked up): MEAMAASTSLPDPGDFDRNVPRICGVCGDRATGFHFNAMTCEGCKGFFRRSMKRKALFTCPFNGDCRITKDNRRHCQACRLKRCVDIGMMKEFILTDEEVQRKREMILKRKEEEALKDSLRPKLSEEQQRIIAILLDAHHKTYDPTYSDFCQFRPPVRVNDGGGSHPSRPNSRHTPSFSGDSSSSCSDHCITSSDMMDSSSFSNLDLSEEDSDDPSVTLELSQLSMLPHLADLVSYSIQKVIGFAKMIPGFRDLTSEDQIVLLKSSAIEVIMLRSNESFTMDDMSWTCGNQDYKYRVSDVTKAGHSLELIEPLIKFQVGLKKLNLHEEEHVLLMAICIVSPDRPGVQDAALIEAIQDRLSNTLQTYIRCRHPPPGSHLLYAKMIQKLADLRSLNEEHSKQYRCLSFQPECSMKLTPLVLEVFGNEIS
#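 Reagent solutions, kept cold and dark, are dispensed first; compounds are then pinned in at 23 nl, plates briefly spun, and incubated 2 h at ambient temperature. Inhibition of VDR–SRC2-3 peptide binding is read by fluorescence polarization.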
# An asterisk follows results filed as active; ? = inconclusive; & = joins results of further samples; [ ] = dose if it differs, or a comment. On the % scale 0 is the no-effect control and ±100 the full control effect; potency means the concentration at half of the fitted maximal effect. Not all compounds are listed; count on the stated rates, not on these rows.
VDR inhibitor,SMILES
30%[activator],Cc1ccc(NC(=O)COc2ccccc2)c(NC(=O)c2ccco2)c1
-10%,CCCn1c2ccccc2c2nnc(SCC(=O)Nc3nnc(CC(=O)OCC)s3)nc21
-17%,COc1ccccc1NC(=S)NCCc1c[nH]c2ccccc12
-16%,CCCNC(=O)C(=O)N/N=C/c1ccc(OCc2ccccc2)cc1
1%,CC1CCN(C(=O)CSc2nc3ccccc3nc2Cc2ccccc2)CC1
-11%,CCOc1ccc(NS(=O)(=O)c2ccc(NC(=O)c3cccnc3)c(OC)c2)cc1
-8%,CN(CC1CCCN(CCc2ccccc2F)C1)C(=O)c1ccoc1 (stereo not given)
2%,CC(C)(C)c1ccc(OCc2nnc(-c3ccccc3)o2)cc1
6%,CCN(C(=O)/C=C/c1ccccc1)C1CCCCC1
23%,CCOC(=O)Cc1csc(NC(=O)COc2ccc(C)c(C)c2)n1
0%,Cc1ccc2c(CSc3nncn3C)cc(=O)oc2c1C
-3%,O=C(Cn1nc(-c2cccc(Cl)c2)ccc1=O)Nc1cccnc1
10%,CCOC(=O)N1c2ccccc2Sc2ccccc21
6%,O=C(Nc1nnc(Cc2ccc(Cl)cc2)s1)c1cccs1
-18%,Cc1cccc(C)c1OCC(=O)OCC(=O)Nc1ccc(Cl)cn1
1%,O=C(CN(c1ccc2c(c1)OCCO2)S(=O)(=O)c1ccccc1)NCC1CCCO1 (stereo not given)
0%,Cc1cc(SCC(=O)N(C)CC(=O)Nc2ccc(F)cc2)nc2ccccc12
4%,CCn1cc(C(=O)NCCCOC(C)C)c(=O)c2cc(S(=O)(=O)N3CCc4ccccc4C3)ccc21
6%,COC(=O)c1sc(S(=O)(=O)NC(C)C(=O)O)c(C(=O)OC)c1C (stereo not given)
10%,COC(=O)c1ccc(-c2n[nH]c(=O)c3ccccc23)cc1
-18%,Cc1ccc(Cl)cc1N1C(=O)CC(Sc2ncccn2)C1=O (stereo not given)
-3%,C#CCOCCOCCOCCNc1nc(N2CCN(C(=O)[C@H](CCCN=C(N)N)n3cc(C(N)[C@@H](C)CC)nn3)CC2)nc(N2CCN(C(=O)[C@H](CCC(=O)O)n3cc([C@@H](N)CC(N)=O)nn3)CC2)n1 (stereo not given in full)
15%,COc1cccc(CNC(=O)CSc2nc3ccccc3nc2Cc2ccc(C)cc2)c1OC
-11%,O=C(CSc1nc2ncccc2[nH]1)NC1CCCCC1
-11%,CCOCCCNC(=O)c1ccc(N2CCOCC2)c(NS(=O)(=O)c2ccc(OC)cc2)c1
1%,NC(=O)c1c(NC(=O)c2ccc([N+](=O)[O-])o2)sc2c1CCCC2
0%,COC(=O)c1ccc(Cn2cnc3c(cnn3-c3ccc(C)c(C)c3)c2=O)o1
-13%,O=C(NNC(=O)c1ccc2c(=O)n3c(nc2c1)CCC3)c1cccc(Cl)c1
-15%,COc1ccc(-c2csc(Nc3cc(C)ccn3)n2)cc1C
-2%,CCCN1CCN(CCCNC(=O)CCCn2nc(C)c3sc4ccccc4c3c2=O)CC1
8%,Cc1ccc(NC(=O)CCC(=O)OCC(=O)c2ccc(-c3ccccc3)cc2)cc1
10%,CC1=C(Sc2nc3ccccc3[nH]2)C(=O)NC(C)(C)C1
11%,O=C(Cc1cccs1)Nc1ccccc1-c1nc2ccccc2[nH]1
0%,Cc1ccc(Cc2c(C)nn(-c3nc(C)c(C(=O)N4CCCCC4C)s3)c2C)cc1 (stereo not given)
-5%,Nc1cccc(-c2nc3ccccc3[nH]2)c1
27%,COc1ccccc1N1CCN(C(=O)c2cccc(C(=O)N3CCN(c4ccccc4OC)CC3)c2)CC1

# Compounds listed so far with an NH in an aromatic ring:
VDR inhibitor,SMILES
-17%,COc1ccccc1NC(=S)NCCc1c[nH]c2ccccc12
10%,COC(=O)c1ccc(-c2n[nH]c(=O)c3ccccc23)cc1
-11%,O=C(CSc1nc2ncccc2[nH]1)NC1CCCCC1
10%,CC1=C(Sc2nc3ccccc3[nH]2)C(=O)NC(C)(C)C1
11%,O=C(Cc1cccs1)Nc1ccccc1-c1nc2ccccc2[nH]1
-5%,Nc1cccc(-c2nc3ccccc3[nH]2)c1

# Remaining list, next part.
VDR inhibitor,SMILES
3%,O=C(Cn1cnc2c(oc3ccccc32)c1=O)Nc1ccc(F)cc1F
13%,COc1ccccc1OCCNc1ccc(S(=O)(=O)N2CCCC2)cn1
11%,Cc1cccc(N2CCN(C(=O)C(NS(=O)(=O)c3cccs3)c3ccccc3)CC2)c1C (stereo not given)
-2%,COC(=O)N1[C@H](C)C=C[C@]1(Cc1ccccc1)C(=O)NCCCNc1ncc(C(F)(F)F)cc1Cl
-2%,COc1cc(Br)cc2cc(C(=O)N3CCCCC3C)c(=O)oc12 (stereo not given)
-9%,CSc1ccccc1NC(=O)c1cc(-c2ccc3c(c2)OCO3)on1
0%,COC(=O)c1ccc2c(=O)n(CCCCCC(=O)N3CCN(c4cc(Cl)ccc4C)CC3)c(=O)[nH]c2c1
-16%,Cc1cc(C)c(OCCCNC2CCCC2)c(Br)c1
125%[activator],CCN(CC)C(=O)CSc1nnc2c3ccccc3n(C)c2n1
89µM*,O=C(CSc1nccn(-c2cccc(F)c2)c1=O)Nc1ccc(Cl)cc1F
3%,Cc1ccc(NC(=O)CCn2cccn2)c(C)c1
13%,O=C(NCCc1csc(-c2cccc(F)c2)n1)c1ccc(Br)o1
11%,Cc1ccc2nc(SCC(=O)NCCCN3CCCC3=O)[nH]c2c1
-10%,COc1ccc(Cl)cc1S(=O)(=O)Oc1ccc(NC(C)=O)cc1
10%,CC1Cc2nc(SCC(=O)Nc3ccc(F)cc3F)n(C)c(=O)c2S1 (stereo not given)
-1%,CCCCC(CC)C(=O)Nc1ccc(Nc2ccccc2)cc1 (stereo not given)
-22%,CCCCNC(=S)Nc1ccc(-c2nc3ccc(C)cc3s2)cc1
-17%,CCc1ccccc1NC(=O)Cn1c(=O)n(CC(=O)NCCc2ccccc2)c(=O)c2ccccc21
11%,CCOC(=O)C1CCCN(C(=O)c2ccc(S(=O)(=O)NCc3ccco3)cc2)C1 (stereo not given)
11%,CCCNC(=O)COc1nc2ccccc2nc1N1CCOCC1
16%,CCCc1ccc(OC(=O)CSc2nnc(-c3cccs3)o2)cc1
14%,O=c1[nH]c2ccc(S(=O)(=O)N3CCCCC3)cc2[nH]1
-6%,Cc1nn(-c2ccccn2)c2c1C(c1ccncc1)C1=C(CC(C)(C)CC1=O)N2 (stereo not given)
-4%,O=C1NC(c2ccccc2)=C(c2nc3ccccc3s2)C(c2ccc(O)cc2)N1 (stereo not given)
-18%,COCCCNC(=S)Nc1cccc2ncccc12
-15%,CCOCCCN1CC(=O)N2[C@@H](Cc3c([nH]c4ccccc34)C2(C)C)C1=O
1%,CC(C)OC(=O)c1c(-c2ccc(C(C)C)cc2)csc1NC(=O)C1CCCO1 (stereo not given)
-6%,Cc1ccc2[nH]c3c(N4CCN(Cc5ccccc5)CC4)ncnc3c2c1
2%,CN(C)c1ccc(NC(=O)c2ccc(COc3cccc(Cl)c3)o2)cc1
39%[activator],N#Cc1ccc(N2CCN(c3ccc(F)cc3)CC2)cc1
?,Cn1cnnc1SCC(=O)c1ccc(OC(F)F)cc1
-14%,Cc1ccc(S(=O)(=O)N(Cc2c(F)cccc2Cl)C(=O)N2CCN(C)CC2)cc1
2%,CCCCCCCCCc1ccc(OCCOCCOCCOCCOCCOCCOCCOCCOCCO)cc1
-1%,COc1cc(OC)c2cc(C(=O)N[C@@H](Cc3ccccc3)C(=O)O)n(C)c2c1
2%,O=C(NC1CCCC1)C(c1ccc(N2CCOCC2)cc1)N(Cc1ccco1)C(=O)c1ccco1 (stereo not given)
-9%,CN(CC(=O)Nc1ccc(N2CCOCC2)cc1)C(=O)CSc1ccc(F)cc1
2%,CNC(=S)N(CCc1c(C)[nH]c2ccc(OC)cc12)Cc1cc(OC)c(OC)c(OC)c1
-3%,C=CCC(O)(/C=C/c1ccccc1)c1ccccc1 (stereo not given)
-1%,CCCCN(C(=O)c1cc2c(s1)CCC2)c1c(N)n(CCC)c(=O)[nH]c1=O
21%,CC(C)(C)C(=O)Nc1ccc(C(=O)COC(=O)c2ccccn2)cc1
?,Cc1ccccc1CN1[C@@H](CC2CCCCC2)COCCS1(=O)=O
-12%&-11%,Cc1c(O)ccc(/C=N/Nc2nc(-c3cccnc3)nc3ccccc23)c1O
7%,CC(=O)c1cnc2c(-c3ccccc3)cnn2c1C
-8%,CC(=NNC(=O)c1cc(C)nc2ccccc12)c1ccc(N2CCOCC2)cc1
-11%,Brc1cc(Br)c2nc(-c3ccc(N4CCOCC4)cc3)ccc2c1
1%,CCN(CC)c1ccc(/C=C/c2cc(-c3ccccc3)c3ccccc3n2)cc1
-9%,CC/C(=N\NC(=O)COc1ccc(Br)cc1)c1ccc(OC)c(OC)c1
-6%,NS(=O)(=O)c1ccc(CCNC(=O)COC(=O)c2nc(Cl)ccc2Cl)cc1
8%,CCC1CC(=O)CCN1S(=O)(=O)c1ccc(C)cc1 (stereo not given)
?,CCN1CCN(CCC(=O)Nc2ccc(Br)c(C)c2)CC1
-10%,Cc1ccc(-c2cc(C(F)(F)F)c(C#N)c(=O)[nH]2)cc1
2%,O=C(NCC(c1ccco1)N1CCN(c2ccccc2)CC1)OCc1ccccc1 (stereo not given)
4%,Cn1c(=O)c2sccc2n2c(CCCC(=O)Nc3ccc(Oc4ccc(Cl)cc4)cc3)nnc12
2%,Cc1ccc(Cl)cc1N1CCN(C(=O)C2CCN(S(=O)(=O)Cc3ccccc3)CC2)CC1
3%,C/C=C/c1cc(CN2CCN(c3ccccc3)CC2)c(O)c(OC)c1
-12%,N=C(N)SCc1cccc2ccccc12
8%,O=C(CCn1c(=O)[nH]c2ccsc2c1=O)N1CCc2ccccc2C1
-3%,Cc1sc2nc(CSC(C)C(=O)Nc3cc(S(C)(=O)=O)ccc3Cl)[nH]c(=O)c2c1C (stereo not given)
-3%,Cc1ccc(NS(=O)(=O)c2ccc(C(=O)NCCCN3CCCC3=O)cc2)cc1
-10%,COc1ccc(N=C2C(=O)Nc3c(C)cccc32)cc1

# The results go on:
VDR inhibitor,SMILES
6%,CCOC(=O)c1cc(-c2ccccc2)n(CC(=O)NCc2ccccc2OC)c1C
-21%,COc1ccc(C2(O)C(=O)Nc3ccc(C)cc32)cc1 (stereo not given)
5%,CC(=O)c1cccc(NC(=O)N2CCC(NC(=O)C3CCCCC3)CC2)c1
-1%,Cc1ccc(Nc2nc(N)nc(CSc3nc(C)cc(C)n3)n2)cc1
-3%,CCOc1ccccc1Nc1nc(-c2cccnc2)cs1
4%,Cc1noc(C)c1CC(=O)Nc1ccc2c(c1)OCO2
9%,Cn1ncc2c(Nc3ccc([N+](=O)[O-])cc3)nc(Cl)nc21
-5%,O=C(NCc1ccccc1Cl)c1cc2c(s1)CS(=O)(=O)C2
-10%,COc1ccc(C(=O)CN2C(=O)c3ccccc3C2=O)c(OC)c1
3%,CC(C)(C)NC(=O)COC(=O)c1snc(C(=O)NC2CCCCC2)c1N
7%,Cc1noc(C)c1S(=O)(=O)N(C)C[C@H]1Oc2ccc(NC(=O)NC(C)C)cc2C(=O)N([C@H](C)CO)C[C@@H]1C
-19%,COc1ccc(C2=NN(C(=O)CSc3nc(=O)n4ccc(C)cc4n3)C(c3ccc(C)cc3)C2)cc1 (stereo not given)

# 5 entries drawn at random from those above:
VDR inhibitor,SMILES
-10%,COc1ccc(C(=O)CN2C(=O)c3ccccc3C2=O)c(OC)c1
-3%,CCOc1ccccc1Nc1nc(-c2cccnc2)cs1
7%,Cc1noc(C)c1S(=O)(=O)N(C)C[C@H]1Oc2ccc(NC(=O)NC(C)C)cc2C(=O)N([C@H](C)CO)C[C@@H]1C
3%,CC(C)(C)NC(=O)COC(=O)c1snc(C(=O)NC2CCCCC2)c1N
5%,CC(=O)c1cccc(NC(=O)N2CCC(NC(=O)C3CCCCC3)CC2)c1

# The listing continues.
VDR inhibitor,SMILES
6%,O=C(COc1ccc2c3c(c(=O)oc2c1)CCCC3)NCC(O)c1ccccc1 (stereo not given)
16%,Cc1nc2c(C)cccn2c(=O)c1NC(=O)c1ccc(Br)o1
13%,O/C(=C\Sc1nnc(Cc2ccccc2)o1)c1ccc(Br)cc1
2%,Cc1cccc(-n2ccnc2SCC(=O)Nc2ccc3c(c2)OCO3)c1
11%,Cc1ccc(-c2nc(C=Nc3cccc(C)c3)c(O)o2)cc1
14%,Cc1ccc(CN2C(=O)CCC2C(=O)NCCCN2CCCCC2C)cc1 (stereo not given)
15%,CCN1CCN(c2ccc(S(=O)(=O)N3CCOCC3)cc2NC(=O)CCC(C)C)CC1
-7%,NS(=O)(=O)c1ccc(-n2nncc2C23CC4CC(CC(C4)C2)C3)cc1
0%,O=C(CN1CCN(C(=O)N2CCCCC2)CC1)Nc1ccc(F)cc1
-21%,CCOC(=O)c1ccc(-c2ccc(C=O)o2)cc1
-4%,CCCCN(C(=O)c1ccc(Cl)cc1)C1CC2CCC(C1)N2C (stereo not given)
-22%,CN(C1CCCCC1)S(=O)(=O)c1cccc2nsnc12
-10%,NC(=O)CSc1nnc(-c2ccc(S(=O)(=O)N3CCOCC3)cc2)n1Cc1ccccc1
-2%,Cc1ccccc1OCC(O)CN1CCN(C)CC1 (stereo not given)
-1%,CCc1nc(SCC(=O)Nc2nnc(CC)s2)c2c(C)c(C)sc2n1

# Screening results: PubChem, National Center for Advancing Translational Sciences (NCATS)
